Rango-impB inh: inhibitors of Rango-importin beta complex formation; Q14974; Rango CFP/YFP FRET sensor + importin beta, 45 min; Potency, µM (series often up to 92.2 µM), for inactives: top-dose inhibition of complex formation; hit rate 0.031% among 340,000; AID 540263; active = rising FRET ratio curve, often small or poorly fitted; inconclusive = mostly compound fluorescence or quenching in the first reads; inactive = flat curves in all reads;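 further: potency means the concentration at half of the fitted maximal effect; 0% = DMSO wells and 100% = buffer wells lacking importin beta; nearly all actives have a fitted effect of over 15% in size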
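FRET biosensor Rango (snurportin 1 IBB between N-terminal EYFP and C-terminal Cerulean), 50 nM in PBS/1 mM DTT/0.02% Tween-20/0.1% BSA, preincubated 5 min RT with compound; 0.125 microM importin beta added, 45 min RT, CFP/YFP FRET ratio read.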
Rango release inh: inhibition of RanGTP-driven Rango-importin beta dissociation; Potency, µM (highest dose often 46.1 µM), without a hit: at the highest dose activity change, negative = inhibition; hit rate 0.071% among 340,000; O95149+P62826; Biochemical FRET Rango-importin beta, RanGTP-induced dissociation; active means falling FRET ratio curve, often poorly fitted, with flat reads before Ran was added; inconclusive means other falling curves, or compound fluorescence or quenching; inactive means flat or rising ratio curve;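 further: potency means the concentration at half of the fitted maximal effect; % of control where 0% means no effect; nearly all actives have a fitted effect of over 45% in size; -100% = wells without RanGTP and RCC1; the record marks most hits as doubtful in a second field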
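Quantitative HTS using a FRET biosensor: 0.1 uM Rango, 0.25 uM importin beta, 0.6 uM Ran, 2 mM GTP, 0.2 uM RCC1 final, PBS with DTT, Tween-20 and BSA. Post-read taken 45 min after Ran addition.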
GLA inh pH 4.5: alpha-galactosidase A (human) inhibition, pH 4.5. P06280. 230,000 tested, under 10 active. activity change, negative = inhibition, % at 105 µM. purified enzyme, 4-MU-alpha-Gal fluorescence, pH 4.5; inconclusive = small, poorly fitted or top-dose-only inhibition, or a rising curve; inactive = flat fitted curve, though single readings scatter; no compound was filed as active;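 further: 0% = full activity with enzyme and -100% = basal without enzyme; dose as in the result columns while the protocol names 77 µM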
Target sequence (P06280 whole entry, looked up): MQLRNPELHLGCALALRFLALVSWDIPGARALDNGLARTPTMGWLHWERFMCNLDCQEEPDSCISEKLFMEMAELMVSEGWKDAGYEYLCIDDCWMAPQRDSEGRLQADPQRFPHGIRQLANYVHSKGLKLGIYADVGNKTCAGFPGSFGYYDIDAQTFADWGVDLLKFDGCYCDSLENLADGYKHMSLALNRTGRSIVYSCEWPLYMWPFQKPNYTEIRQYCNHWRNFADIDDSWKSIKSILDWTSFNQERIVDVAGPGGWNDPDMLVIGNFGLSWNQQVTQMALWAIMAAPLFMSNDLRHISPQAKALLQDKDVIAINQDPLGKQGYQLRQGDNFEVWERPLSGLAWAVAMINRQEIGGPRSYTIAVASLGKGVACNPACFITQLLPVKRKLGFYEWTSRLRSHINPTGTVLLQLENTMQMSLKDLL
miR-21 reporter: miR-21 reporter, rising signal; AID 2288; HeLa miR-21 FLuc reporter, luciferase, 48 h; Potency, µM (highest dose often 38.3 µM), without a hit: at the top dose reporter change, positive = more light; 340,000 tested, under 10 active; active = well fitted rising curve with a large enough effect; inconclusive = small, poorly fitted or top-dose-only effect; inactive = no such curve, though single readings can be large or run the other way;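 further: % of control where 0% means no effect; miR-21 action dims this reporter so a rising signal means less miR-21 action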
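HeLa cells endogenously expressing miR-21, stably carrying CMV-driven firefly luciferase with a downstream miR-21 binding site, 2000 cells/well. Titrations up to approximately 40 uM, 48 hours; luciferase luminescence read.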
* marks the source's active call; other numbers are inactive results; ? = inconclusive; . = no result given; & = joins results of further samples. Not all compounds are listed; count on the stated rates, not on these rows.

no.	Rango-impB inh	Rango release inh	SMILES	GLA inh pH 4.5	miR-21 reporter
1	1.1%	0%	Cc1cc2cc(CNC(=O)c3ccc(C)c([N+](=O)[O-])c3)ccc2[nH]1	0	-14%
2	?	-14%	O=C(O)CNC(=O)/C(=C\c1cccc([N+](=O)[O-])c1)NC(=O)c1ccco1	10	0%
3	0.3%	-15%	COc1ccc2cc(C3=CC(=O)CCC3)ccc2c1	.	.
4	-4.6%	5%	C=C(C)COc1ccc(-c2n[nH]c(C)c2-c2ccc(Br)cc2)c(O)c1	0	24%
5	1.6%	19%	CC(C)CCn1nc(C(=O)Nc2nc3c(s2)CCCC3)c2ccccc2c1=O	-10	-19%
6	-2.0%	28%	COc1cccc(CNC(=O)CCC2CCCN(C(=O)c3cccnc3SC)C2)c1 (stereo not drawn)	.	-6%
7	-1.5%	15%	Cc1ccc(S(=O)(=O)N(C)c2ccc(C(=O)NCCc3ccccc3)cc2)cc1	.	-34%
8	-0.3%	10%	COc1ccc(/C=C/c2nc(-c3ccccc3O)n[nH]2)cc1OC	1	-74%
9	-6.2%	3%	O=C(Nc1ccc(S(=O)(=O)Nc2ccc(F)cc2)cc1)c1ccc(CN2CCOCC2)cc1	5	?
10	0.4%	3%	CCOC(=O)c1ccc(NC(=O)CN(c2ccc(C)cc2)S(=O)(=O)c2c(C)nn(C)c2C)cc1	-16	1%
11	-0.3%	-10%	COc1ccc(CC(=O)Oc2ccc(F)c(F)c2)cc1S(=O)(=O)N1CCOCC1	.	.
12	2.5%	11%	NC(=O)NOCc1cccc(Cl)c1	-17	-6%
13	?	?	COc1ccc(C(=O)NCc2ccc3c(c2)cc(C)n3C)cc1	-7	-9%
14	-4.3%	0%	O=C1CCCC2=C1C(c1cccs1)n1nc(SCc3ccccc3F)nc1N2 (stereo not drawn)	30	-3%
15	-1.3%	0%	COc1ccc(CNCCC(c2ccc(OC(C)C)cc2)C(C)C)cc1OC (stereo not drawn)	4	21%
16	-1.2%	-7%	OC(CCN1CCOCC1)(c1ccc(Cl)cc1)C1CCCCC1 (stereo not drawn)	-11	13%
17	-3.2%	-4%	CCCn1nc(C(=O)NNC(=O)c2cccc(S(=O)(=O)NC(C)C)c2)c2ccccc2c1=O	.	2%
18	0.5%	25%	CCS(=O)(=O)N1CCC(C(=O)NCCc2ccc(OC)c(OC)c2)CC1	5	0%
19	-0.8%	0%	N#Cc1ccc(N2Cc3ccccc3C2=NC(=O)c2cccnc2Cl)cc1	-28	-45%
20	-0.6%	10%	C=CCSc1nc2c(c(=O)n(C)c(=O)n2C)n1CC	-4	-10%
21	-1.6%	1%	CC(Oc1ccc(C#N)cc1)C(=O)Nc1ccc(-n2cnnn2)cc1 (stereo not drawn)	.	.
22	?	4%	C=CCc1cccc2cc(C(=O)Nc3ccc(NC(C)=O)cc3)c(=O)oc12	5	-10%
23	-0.6%	1%	O=C(COC(=O)c1cc(=O)[nH]c2ccccc12)Nc1ccc(Cl)c(S(=O)(=O)N2CCOCC2)c1	.	.
24	0.4%	1%	Fc1ccc(Br)cc1SCCc1ccncc1	.	-1%
25	-2.6%	1%	CC/C(C)=C1/NC(=O)NC1=O	.	.
26	0.0%	-3%	O=C(NCc1cccnc1)c1ccc(COc2ccccc2Cl)cc1	-4	2%
27	-2.1%	4%	COC(CNC(=O)C(=O)Nc1ccc2c(c1)N(S(=O)(=O)c1cccs1)CCC2)OC	.	.
28	1.1%	-9%	COC(C[C@@H](O)[C@@H](C)[C@H](O)COCc1ccccc1)OC	-2	8%
29	?	1%	CCn1nnnc1SCC(=O)N(C1CCCCC1)C1CCCCC1	-3	1%
30	2.2%	-6%	O=C(NC(=S)Nn1cnnc1)c1ccccc1Cl	7	-1%
31	?	-25%	N#Cc1ccsc1NC(=O)COC(=O)c1ccc(Br)o1	.	.
32	-1.4%	-6%	Cc1nc2ccc(NC(=O)c3ccco3)cc2s1	-1	-69%
33	3.1%	17%	CCC(C)(O)c1[nH]c2ccc(C#N)cc2c1C (stereo not drawn)	.	-2%
34	-3.1%	6%	Cn1c(=N)n(CC(O)c2cccc3ccccc23)c2ccccc21 (stereo not drawn)	12	19%
35	0.3%	3%	CC(=O)OCc1cc2cc(C)ccc2[nH]c1=O	7	-10%
36	0.5%	11%	COC(=O)[C@H]1[C@@H](C)N(Cc2ccccc2)C(=O)N[C@H]1c1ccccc1	-3	.
37	-0.3%	7%	CN1C(C(=O)Nc2ccccn2)=C(O)c2ccccc2S1(=O)=O	1&0&-14&-2&-6&-15	5%&-17%
38	-4.6%	2%	CCOc1ccccc1N(CC(=O)N1CCOCC1)S(=O)(=O)c1ccc(SC)cc1	-5	-1%
39	0.1%	-1%	C=CCn1c(CC#N)nnc1N1CCOCC1	-2	-4%
40	4.5%	0%	Cc1cc(C(=O)O[C@H]2[C@H](Cc3ccccc3)NS(=O)(=O)[C@H]3C[C@@H]4C=C[C@]23O4)ccc1[N+](=O)[O-]	.	.
41	0.6%	-4%	O=C(CN1CCOCC1)N1CCN(S(=O)(=O)c2ccccc2)C1c1ccccc1 (stereo not drawn)	6	-7%
42	?	.	Cc1onc(-c2ccccc2Cl)c1C(=O)NNC(=O)C1CCN(Cc2ccccc2)CC1	0	-3%
43	-2.9%	-8%	Cc1cc(NC(=O)c2cccc(S(=O)(=O)N3c4ccccc4CC3C)c2)no1 (stereo not drawn)	-1	24%
44	2.8%	18%	O=C(Nc1ccc(SC(F)F)cc1)c1cccc2nc3ccccc3nc12	7	0%
45	-2.4%	-14%	Cc1cc(NC(=O)CSc2nc3c(cc2C#N)CCC3)no1	.	-46%
46	-2.7%	-1%	O=C(CN(Cc1ccccc1F)C(=O)c1ccco1)NCc1ccc(F)cc1	-1	0%
47	-3.6%	7%	CCSc1oc(-c2ccco2)nc1S(=O)(=O)c1ccccc1	2	-9%
48	-1.5%	-18%	CCc1cc(=O)oc2cc(OC(C)C(=O)O)c(Cl)cc12 (stereo not drawn)	-4	2%
49	-1.6%	?	COCC(=O)Nc1c(C(=O)Nc2ccccc2OC)oc2ccccc12	27	-14%
50	-4.9%	27%	COc1ccc(CNc2nc(NCc3ccc(OC)cc3)n(S(C)(=O)=O)n2)cc1	-5	-6%

Sorted by formula weight (falling): 15 of the compounds above.
no.	Rango-impB inh	Rango release inh	SMILES	GLA inh pH 4.5	miR-21 reporter
42	?	.	Cc1onc(-c2ccccc2Cl)c1C(=O)NNC(=O)C1CCN(Cc2ccccc2)CC1	0	-3%
38	-4.6%	2%	CCOc1ccccc1N(CC(=O)N1CCOCC1)S(=O)(=O)c1ccc(SC)cc1	-5	-1%
50	-4.9%	27%	COc1ccc(CNc2nc(NCc3ccc(OC)cc3)n(S(C)(=O)=O)n2)cc1	-5	-6%
41	0.6%	-4%	O=C(CN1CCOCC1)N1CCN(S(=O)(=O)c2ccccc2)C1c1ccccc1 (stereo not drawn)	6	-7%
43	-2.9%	-8%	Cc1cc(NC(=O)c2cccc(S(=O)(=O)N3c4ccccc4CC3C)c2)no1 (stereo not drawn)	-1	24%
44	2.8%	18%	O=C(Nc1ccc(SC(F)F)cc1)c1cccc2nc3ccccc3nc12	7	0%
49	-1.6%	?	COCC(=O)Nc1c(C(=O)Nc2ccccc2OC)oc2ccccc12	27	-14%
47	-3.6%	7%	CCSc1oc(-c2ccco2)nc1S(=O)(=O)c1ccccc1	2	-9%
37	-0.3%	7%	CN1C(C(=O)Nc2ccccn2)=C(O)c2ccccc2S1(=O)=O	1&0&-14&-2&-6&-15	5%&-17%
34	-3.1%	6%	Cn1c(=N)n(CC(O)c2cccc3ccccc23)c2ccccc21 (stereo not drawn)	12	19%
45	-2.4%	-14%	Cc1cc(NC(=O)CSc2nc3c(cc2C#N)CCC3)no1	.	-46%
48	-1.5%	-18%	CCc1cc(=O)oc2cc(OC(C)C(=O)O)c(Cl)cc12 (stereo not drawn)	-4	2%
39	0.1%	-1%	C=CCn1c(CC#N)nnc1N1CCOCC1	-2	-4%
35	0.3%	3%	CC(=O)OCc1cc2cc(C)ccc2[nH]c1=O	7	-10%
33	3.1%	17%	CCC(C)(O)c1[nH]c2ccc(C#N)cc2c1C (stereo not drawn)	.	-2%

Continued:
no.	Rango-impB inh	Rango release inh	SMILES	GLA inh pH 4.5	miR-21 reporter
51	-1.5%	0%	Cc1[nH]n(C)c(=O)c1N=Nc1ccc(S(C)(=O)=O)cc1	-9	-12%
52	?	-2%	CN(CCCCN1CCOCC1)Cc1nc(-c2ccc3c(c2)OCO3)no1	2	-26%
53	0.7%	-2%	CC1CCCCC1NC(=O)COC(=O)c1ccccn1 (stereo not drawn)	1	0%
54	0.4%	-4%	COc1ccc(C(C(=O)NC(C)(C)C)N(C(=O)CNC(=O)c2cccs2)c2cccnc2)cc1OC (stereo not drawn)	.	-1%
55	-1.2%	24%	O=C(Cn1cnc2c(nnn2Cc2ccccc2F)c1=O)N1CCN(c2ccccc2)CC1	5	-10%
56	-0.6%	-7%	Cc1ccc(OCCNC(=O)C2CC(=O)N(c3ccc(C)cc3)C2)cc1 (stereo not drawn)	-1	0%
57	-1.1%	-16%	COc1ccccc1CNC(=O)c1cccc(S(=O)(=O)N(C)c2ccccc2)c1	.	.
58	-1.0%	-20%	COC(=O)Cc1c(O)ccn(Cc2ccc(Cl)c(Cl)c2)c1=O	11	-1%
59	-5.3%	-9%	CC(=O)NCCc1nc2ccccc2[nH]1	4	2%
60	-2.8%	-7%	CCCCCC(=O)Nc1ccc2oc(-c3ccncc3)nc2c1	4	-25%
61	.	.	O=C1Cc2cc(CCN3CCN(c4nsc5ccccc45)CC3)c(Cl)cc2N1	0	-6%
62	-0.1%	-8%	CCCc1nc2n[nH]c(N)c2c2c1CCC2	5	-25%
63	?	?	CCC(C)Sc1ccc(-c2nc3ccccn3c2NCc2ccccc2)cc1OC (stereo not drawn)	.	.
64	-1.0%	5%	Cc1c(Cl)cccc1S(=O)(=O)N1CCC(C(=O)NNC(=O)C2CC2)CC1	1	-4%
65	4.9%	-7%	Cc1ccc(C(=O)NC(C)C(c2cccs2)N2CCCC2)s1 (stereo not drawn)	-3	-22%
66	4.3%	0%	CCCN1C(=O)c2ccccc2NC1c1ccc(Br)cc1 (stereo not drawn)	.	5%
67	-4.3%	0%	CC1(C)C(=O)Nc2ccccc2N1C(=O)CSc1ncccn1	-8	-4%
68	2.0%	0%	COc1ccc(/C=C2\SC(=N)N(c3ccc(F)cc3)C2=O)cc1OC	-14	-14%
69	-0.8%	12%	Cc1ccc(-c2cnc(NCc3cc4c(cc3[N+](=O)[O-])OCO4)n2C)cc1C	-11	12%
70	3.3%	0%	N=c1oc2ccccc2cc1C(=O)NCc1ccccc1	.	-13%
71	-0.2%	-8%	COc1ccc2[nH]c(=O)c(CN(C)C(=O)c3cccs3)cc2c1	7	-3%
72	1.2%	-1%	COc1ccc2c(c1)C(SCC(=O)NCCc1ccccc1)CC(C)(C)O2 (stereo not drawn)	5	-4%
73	-0.1%	1%	CCSc1nnc(Nc2ccccc2)s1	3	-48%
74	3.7%	43%	OCC1(Cc2ccccc2Cl)CCN(C/C=C/c2ccccc2)CC1	-18	-1%
75	-4.6%	-8%	CC1Oc2ccccc2N(CC(=O)N2CCCC2)C1=O (stereo not drawn)	.	-4%
76	0.2%	-7%	CCOc1ccccc1CNc1ccc(N2CCOCC2)c(C(=O)O)c1	-3	-2%
77	0.6%	6%	Nc1ccc(Cl)cc1C(=O)OCC(=O)NC1CCS(=O)(=O)C1 (stereo not drawn)	22	5%
78	0.2%	8%	O=C(CC1(C(F)(F)F)OCCO1)Nc1ccc2c(c1)OCO2	-1	-10%
79	-1.4%	11%	CS(=O)(=O)c1ccc2nc(NC(=O)CS(=O)(=O)Cc3ccccc3)sc2c1	-2	-7%
80	0.4%	-8%	COc1ccc2nc(SCC(=O)NC3CCCC3)c(C)cc2c1	.	13%
81	-2.6%	-19%	Cc1ccc(OCC(=O)N2CCC(Cc3ccccc3)CC2)c([N+](=O)[O-])n1	.	.
82	?	-15%	Cc1ccc2nc(N/N=C/c3ccccc3C#N)nc(-c3ccccc3)c2c1	-16	19%
83	-1.5%	-4%	CCOC(=O)C1=C(C)NC2=C(C(=O)CCC2)C1c1ccc(O)c(OCC)c1 (stereo not drawn)	-13	-8%
84	-1.3%	6%	Cc1ccc(N=Nc2c(N)nn(-c3ccccc3)c2N)cc1	?	-26%
85	-2.8%	?	CCC(=O)Nc1nc(-c2ccccc2)nc(SC)c1C(C)=O	-20	4%
